# Vaccinia inh = Vaccinia orthopox stage-specific inhibition. Vaccinia-infected cells, mCherry/Venus stage reporter fluorescence; hits give low values; some inactives read as strong as hits. activity change (mCherry), % (no concentration beside the values). 89,000 compounds, 0.01% hits;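 active = mCherry past -33% and 40 or more points under the early reporter, replicates agreeing; inconclusive = past -33% without that gap or agreement; tested in A549 cells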;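 note: scaled between vehicle wells and reference inhibitor wells; 23 nL library stock went into each well; one replicate is shown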
# Vaccinia inh Venus = also measured in Vaccinia inh; calls as there; activity change (Venus), %; measured here: Venus reporter, other viral stage;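 negative = less Venus signal; first of two replicates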
# An asterisk follows results filed as active; ? = inconclusive; · = not tested or not shown; & = joins results of further samples. An excerpt. The share of hits here may be higher or lower than overall.
SMILES,Vaccinia inh,Vaccinia inh Venus
CO[C@H]1CN(C)C(=O)c2ccc(NC(=O)NC(C)C)cc2OC[C@@H](C)NC[C@@H]1C,1,0
C/C=C/c1ccc2c(c1)O[C@@H](CN(C)C(=O)COC)[C@H](C)CN([C@@H](C)CO)S2(=O)=O,22,11
C[C@H]1CN([C@@H](C)CO)C(=O)c2cccc(NC(=O)CCCCCC(=O)Nc3ccccc3N)c2O[C@H]1CN(C)S(=O)(=O)c1ccc(Cl)cc1,3,1
C[C@H](CO)N1C[C@H](C)[C@H](CN(C)Cc2ccccc2)Oc2ccc(NC(=O)c3ccncc3)cc2C1=O,43,44
COc1ccc(CN(C)C[C@@H]2Oc3ccc(NS(=O)(=O)c4cccs4)cc3C(=O)N([C@H](C)CO)C[C@H]2C)cc1,4,2
CCCC#Cc1ccc([C@H]2[C@H]3CN(S(=O)(=O)c4ccccc4F)CCCCN3[C@H]2CO)cc1,-8,-12
C[C@H]1CN([C@@H](C)CO)C(=O)c2cc(NC(=O)Nc3cccc4ccccc34)ccc2O[C@H]1CN(C)C(=O)Nc1ccccc1,-1,3
CC(C)CC#Cc1ccc2c(c1)O[C@H](CN(C)C(=O)c1cccnc1)[C@@H](C)CN([C@@H](C)CO)S2(=O)=O,11,8
C=CCOC(=O)[C@@]12O[C@]3(COC[C@H](c4ccccc4)N3C1=O)[C@@H]1C(=O)N(c3ccccc3)C(=O)[C@@H]12,-10,-7
C[C@@H]1CN([C@@H](C)CO)C(=O)c2cccc(NC(=O)c3ccncc3)c2O[C@@H]1CN(C)S(=O)(=O)c1cn(C)cn1,27,13
OC[C@H]1[C@H](c2ccc(C#Cc3ccccc3F)cc2)[C@H]2CN(CC3CCOCC3)CCCCN21,?,·
Cc1noc(C)c1NC(=O)Nc1ccc2c(c1)CC(=O)N([C@H](C)CO)C[C@@H](C)[C@@H](CN(C)Cc1ccc(C(=O)O)cc1)O2,3,11
C[C@@H]1CN([C@H](C)CO)C(=O)CCCn2nncc2CO[C@H]1CN(C)Cc1ccccc1C(F)(F)F,-24,-21
CC(C)NC(=O)Nc1ccc2c(c1)C(=O)N([C@H](C)CO)C[C@H](C)[C@@H](CN(C)S(=O)(=O)c1cn(C)cn1)OCCCC[C@@H](C)O2,15,16
CC(C)CC#Cc1cnc2c(c1)C(=O)N([C@H](C)CO)C[C@@H](C)[C@@H](CN(C)C(=O)Cc1ccncc1)O2,-33,-18
C[C@@H]1CCCCO[C@@H](CN(C)Cc2ccc3c(c2)OCO3)[C@H](C)CN([C@@H](C)CO)C(=O)c2cc(NC(=O)c3ccccc3)ccc2O1,?,·
CO[C@@H]1CN(C)C(=O)c2ccc(NC(=O)C3CC3)cc2OC[C@@H](C)N(CCc2ccccc2)C[C@H]1C,-11,-17
C[C@H]1CN([C@@H](C)CO)C(=O)c2cccc(NS(=O)(=O)c3ccc(F)cc3)c2O[C@H]1CN(C)CC1CC1,7,8
O=C([C@@H]1[C@@H](CO)[C@@H]2Cn3c(ccc(-c4ccc(F)cc4)c3=O)[C@@H]2N1Cc1cocn1)N1CCCCC1,6,5
C[C@@H]1CN([C@H](C)CO)C(=O)c2cc(NC(=O)Nc3ccc4c(c3)OCO4)ccc2O[C@@H](C)CCCCO[C@H]1CN(C)S(=O)(=O)c1cn(C)cn1,26,9
Cc1noc(C)c1NC(=O)N(C)C[C@@H]1Oc2ccc(NC(=O)c3ccncc3)cc2CC(=O)N([C@@H](C)CO)C[C@H]1C,10,11
O=C(Nc1cccc(F)c1)N[C@H]1CC[C@@H](CCNS(=O)(=O)c2cccc(Cl)c2)O[C@@H]1CO,-20,-13
CCCNC(=O)Nc1ccc2c(c1)C(=O)N(C)C[C@@H](OC)[C@H](C)CN(C)[C@H](C)CO2,7,9
O=S(=O)(c1ccc(F)cc1)N1CCCCN2[C@@H](CO)[C@@H](c3ccc(-c4ccccc4)cc3)[C@@H]2C1,?,·
C/C=C/c1ccc([C@H]2[C@H]3CN(Cc4ccc(F)cc4)CC(=O)N3[C@H]2CO)cc1,4,6
Cc1ccc(S(=O)(=O)Nc2ccc3c(c2)CC(=O)N([C@H](C)CO)C[C@H](C)[C@@H](CN(C)C(=O)Nc2ccccc2)O3)cc1,0,-4
COc1ccc(CN(C)C[C@@H]2Oc3ccc(NC(=O)Cn4cnnn4)cc3C(=O)N([C@H](C)CO)C[C@H]2C)cc1,20,3
CC(=O)N(C)C[C@@H]1Oc2ncc(-c3ccc(C#N)cc3)cc2C(=O)N([C@H](C)CO)C[C@H]1C,11,0
O=C(C[C@@H]1CC[C@@H]2[C@H](COC[C@H](O)CN2Cc2cc(F)cc(F)c2)O1)NC1CCC1,3,5
C[C@H]1CN([C@@H](C)CO)C(=O)Cc2cc(NC(=O)Nc3ccc(F)cc3)ccc2O[C@H]1CN(C)C,2,2
COC(=O)C[C@H]1CC[C@H]2[C@@H](COc3ccc(NC(=O)c4cccs4)cc3C(=O)N2C)O1,6,3
N#C[C@@H]1[C@@H](c2ccc(-c3cccc(F)c3)cc2)[C@H](CO)N1C(=O)NC1CCCCC1,-33,-18
C[C@H]1CN([C@@H](C)CO)C(=O)Cc2cc(NC(=O)Cc3ccccc3)ccc2O[C@H]1CN(C)S(=O)(=O)c1ccc(Cl)cc1,?,·
C/C=C/c1ccc([C@@H]2[C@H](CO)N(CC3CC3)C23CN(S(C)(=O)=O)C3)cc1,-4,-3
COCC(=O)N1CC2(C1)[C@@H](c1ccccc1)[C@@H](CO)N2C(=O)c1ccncc1,-9,3
C[C@@H]1CCCCO[C@@H](CN(C)C(=O)c2ccccc2)[C@H](C)CN([C@H](C)CO)C(=O)c2cc(NS(=O)(=O)c3ccc(Cl)cc3)ccc2O1,?,·
C[C@H](CO)N1C[C@H](C)[C@@H](CN(C)Cc2ccc(C(F)(F)F)cc2)Oc2c(NC(=O)Nc3ccc4c(c3)OCO4)cccc2C1=O,-23,-9
COCC(=O)N(C)C[C@H]1Oc2ncc(-c3ccc(F)cc3)cc2C(=O)N([C@@H](C)CO)C[C@@H]1C,18,15
COC(=O)C[C@@H]1CC[C@H]2[C@@H](COc3ccc(NS(=O)(=O)c4ccccc4Cl)cc3C(=O)N2C)O1,5,7
Cc1noc(C)c1S(=O)(=O)N(C)C[C@@H]1Oc2ccc(NC(=O)Cc3cn(C)c4ccccc34)cc2CC(=O)N([C@@H](C)CO)C[C@@H]1C,2,1
C[C@H](CO)N1C[C@H](C)[C@H](CN(C)C(=O)Nc2ccccc2)Oc2ccc(NC(=O)c3ccncc3)cc2CC1=O,27,19
CCNC(=O)Nc1ccc2c(c1)C(=O)N(C)[C@@H]1CC[C@H](CC(=O)NCc3ccc(F)cc3)O[C@@H]1CO2,6,-2
C[C@H](CO)N1C[C@H](C)[C@@H](CN(C)C(=O)c2ccccn2)Oc2ncc(-c3cccc(C#N)c3)cc2C1=O,3,1
Cc1noc(C)c1NC(=O)N(C)C[C@H]1Oc2c(NC(=O)C3CCCCC3)cccc2C(=O)N([C@@H](C)CO)C[C@@H]1C,39,24
CNC[C@@H]1OCCCC[C@H](C)Oc2ccc(NS(C)(=O)=O)cc2C(=O)N([C@H](C)CO)C[C@@H]1C,12,1
O=C(C[C@H]1CC[C@H]2[C@@H](COC[C@@H](O)CN2Cc2cccc(-c3ccncc3)c2)O1)N1CCN(c2ccccc2)CC1,?,·
CCCC#Cc1cnc2c(c1)C(=O)N([C@@H](C)CO)C[C@H](C)[C@@H](CN(C)C(=O)Cc1ccccc1)O2,-30,-24
C[C@H]1ON(c2ccc(C(=O)OC(C)(C)C)cc2)[C@@H](c2ccc(O)cc2)[C@@H]1C(=O)N1C(=O)OC[C@@H]1c1ccccc1,-16,-14
COc1ccc(S(=O)(=O)Nc2cccc3c2O[C@@H](CN(C)C(=O)Nc2ccc(F)cc2)[C@H](C)CN([C@@H](C)CO)C3=O)cc1,16,8
CN(C)CC(=O)N[C@@H]1CC[C@@H](CC(=O)O)O[C@H]1CO,18,14
C[C@@H]1CN([C@H](C)CO)C(=O)Cc2cc(NC(=O)C3CCCCC3)ccc2O[C@H]1CN(C)Cc1ccncc1,1,7
C[C@@H]1CN([C@@H](C)CO)C(=O)c2cccc(NS(=O)(=O)c3cccs3)c2O[C@@H]1CN(C)Cc1ccc(Oc2ccccc2)cc1,-12,-10
C[C@H]1CN([C@@H](C)CO)C(=O)CCCn2nncc2CO[C@H]1CN(C)S(=O)(=O)c1ccc2ccccc2c1,-12&-6,-6&-3
COc1ccc(CN(C)C[C@H]2OCCCC[C@@H](C)Oc3ccc(NS(=O)(=O)c4cn(C)cn4)cc3C(=O)N([C@@H](C)CO)C[C@H]2C)cc1,6,4
O=C(CCN1CCCCC1)N[C@@H]1CC[C@H](CCNC(=O)c2cc(Cl)cc(Cl)c2)O[C@H]1CO,2,8
CCS(=O)(=O)N1CC2(C1)[C@H](c1ccccc1)[C@@H](CO)N2Cc1ccc(F)cc1,13,15
O=C(C[C@@H]1CC[C@@H](NS(=O)(=O)c2ccc(F)cc2)[C@H](CO)O1)NCc1ccncn1,9,3
CO[C@H]1CN(C)C(=O)c2ccc(NC(=O)C3CC3)cc2OC[C@@H](C)N(C(=O)c2ccncc2)C[C@H]1C,5,3
C[C@H](CO)N1C[C@H](C)[C@@H](CN(C)Cc2ccc3c(c2)OCO3)Oc2c(NS(C)(=O)=O)cccc2C1=O,0,5
C[C@H](CO)N1C[C@H](C)[C@@H](CN(C)Cc2ccc(-c3ccccc3)cc2)Oc2c(NS(=O)(=O)c3ccc(Cl)cc3)cccc2C1=O,-17,-14

# Later entries:
SMILES,Vaccinia inh,Vaccinia inh Venus
CC(C)NC(=O)N1[C@@H]2CNC[C@H]1C2c1ccc(-c2ccccc2)cc1 (stereo partly drawn),1&-7,1&2
CO[C@H]1CN(C)C(=O)c2ccc(NC(=O)c3cccc(F)c3)cc2OC[C@@H](C)N(C)C[C@@H]1C,1,-4
C[C@H](NC(=O)C[C@H]1CC[C@H](NC(=O)Cc2ccccn2)[C@H](CO)O1)c1ccccc1,2,5
COc1ccc(NC(=O)N(C)C[C@@H]2Oc3ncc(C#C[C@H](C)O)cc3C(=O)N([C@@H](C)CO)C[C@@H]2C)cc1,15,9
COc1ccccc1CNC(=O)C[C@H]1CC[C@@H]2[C@H](COC[C@H](O)CN2Cc2ccc3c(c2)OCO3)O1,-12,-8
COCC(=O)N1C[C@@H](C)[C@H](OC)CN(C)C(=O)c2cc(NC(=O)c3ccc(OC)cc3)ccc2OC[C@@H]1C,24,17
CC(C)CC#Cc1ccc2c(c1)O[C@H](CN(C)Cc1cccc(F)c1)[C@@H](C)CN([C@@H](C)CO)S2(=O)=O,-15,-7
C[C@@H]1CCCCO[C@H](CN(C)CC2CCCCC2)[C@H](C)CN([C@H](C)CO)C(=O)c2cc(NS(=O)(=O)c3ccccc3)ccc2O1,?,·
C/C=C/c1cnc2c(c1)C(=O)N([C@H](C)CO)C[C@@H](C)[C@@H](CN(C)Cc1ccccc1)O2,21,13
COCC#Cc1ccc([C@@H]2[C@H]3CN(S(=O)(=O)c4cccc(OC)c4)CCCCN3[C@H]2CO)cc1,-26,-19
CC(C)NC(=O)Nc1ccc2c(c1)C(=O)N([C@@H](C)CO)C[C@@H](C)[C@@H](CN(C)Cc1ccc(C(=O)O)cc1)O2,9,7
O=C(C[C@@H]1CC[C@@H]2[C@H](COC[C@@H](O)CN2CCC(F)(F)F)O1)N1CCC(Cc2ccccc2)CC1,-22,-13
COC(=O)c1ccc(CN2CC(=O)N3[C@@H](CO)[C@H](c4ccc(-c5cccnc5)cc4)[C@@H]3C2)cc1,-3,-2
COc1ccccc1S(=O)(=O)N[C@H]1CC[C@H](CCNC(=O)C2CCCCC2)O[C@H]1CO,-1,3
COc1ccc(S(=O)(=O)Nc2ccc3c(c2)C(=O)N([C@@H](C)CO)C[C@H](C)[C@@H](CN(C)C(=O)NC2CCCCC2)O3)cc1,26,26
CO[C@@H]1CN(C)C(=O)c2cc(NC(=O)NC3CCCC3)ccc2OC[C@H](C)N(CC2CC2)C[C@@H]1C,2,6
C[C@H](CO)N1C[C@H](C)[C@H](CN(C)S(=O)(=O)c2ccccc2)Oc2ccc(NS(=O)(=O)c3cccs3)cc2CC1=O,18,9
O=C(C1CCCC1)N1C[C@@H]2[C@H](c3ccccc31)[C@H](CO)N2C(=O)c1ccccc1F,8,14
C[C@H](NC(=O)C[C@H]1CC[C@@H](NC(=O)Cc2ccccn2)[C@H](CO)O1)c1ccccc1,-7,-6

# 6 successive records already listed, for reference:
SMILES,Vaccinia inh,Vaccinia inh Venus
CO[C@H]1CN(C)C(=O)c2ccc(NC(=O)NC(C)C)cc2OC[C@@H](C)NC[C@@H]1C,1,0
C/C=C/c1ccc2c(c1)O[C@@H](CN(C)C(=O)COC)[C@H](C)CN([C@@H](C)CO)S2(=O)=O,22,11
C[C@H]1CN([C@@H](C)CO)C(=O)c2cccc(NC(=O)CCCCCC(=O)Nc3ccccc3N)c2O[C@H]1CN(C)S(=O)(=O)c1ccc(Cl)cc1,3,1
C[C@H](CO)N1C[C@H](C)[C@H](CN(C)Cc2ccccc2)Oc2ccc(NC(=O)c3ccncc3)cc2C1=O,43,44
COc1ccc(CN(C)C[C@@H]2Oc3ccc(NS(=O)(=O)c4cccs4)cc3C(=O)N([C@H](C)CO)C[C@H]2C)cc1,4,2
CCCC#Cc1ccc([C@H]2[C@H]3CN(S(=O)(=O)c4ccccc4F)CCCCN3[C@H]2CO)cc1,-8,-12
